ClpP mod: qHTS Assay for Activators of ClpP; ATP-dependent Clp protease proteolytic subunit (Bacillus subtilis (strain 168)), P80244; purified B. subtilis ClpP, FRET peptide cleavage, 20 min; Potency, µM (titrated, usually from 57.5 µM), for the others: top-dose activity change, negative = active; hit rate 1.9% among 340,000; AID 651965, 2013; active = well fitted falling curve with a large enough effect; inconclusive = small, poorly fitted or top-dose-only effect; inactive = no such curve, though single readings can be large or run the other way; further: potency means the concentration at half of the fitted maximal effect; the source files actives as falling curves though it sought activators and does not explain the sign; nearly all actives have a fitted effect of over 65% in size; many hits overshoot -100%
Target sequence (P80244 whole entry, looked up): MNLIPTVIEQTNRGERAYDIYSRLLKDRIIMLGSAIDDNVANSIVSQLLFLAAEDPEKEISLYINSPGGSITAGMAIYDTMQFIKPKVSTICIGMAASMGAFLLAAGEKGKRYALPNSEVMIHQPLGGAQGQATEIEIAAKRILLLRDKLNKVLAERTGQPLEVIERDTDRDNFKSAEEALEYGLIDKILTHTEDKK
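FRET quenching reversal measured ClpP activation: 10 microg/mL B. subtilis ClpP at pH 8 with the FRET-FV decapeptide, read at 430 nm after 320 nm excitation. The 20-min minus 0-min signal was scaled between DMSO/no-enzyme wells and ADEP (5.8 microM final).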
Sfp inh: blocks B. subtilis Sfp PPTase activity; Biochemical Sfp PPTase activity, qHTS; Potency, µM, for the others: max response, negative = inhibition, most hits filed as inhibitors; AID 1490; Q9F4F7; hit rate 3.5% among 310,000; active means well fitted inhibition curve with a large enough effect; inconclusive means small, poorly fitted or top-dose-only effect, or another doubt; inactive means no such curve, though single readings can be large or run the other way;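 further: the enzyme is Sfp with the accession as filed and its product quenches rhodamine fluorescence; potency means the concentration at half of the fitted maximal effect; 0% = enzyme reaction without inhibitor and -100% = no enzyme wells; top concentration of the series not given in the record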
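Buffer: 50 mM Hepes-Na pH 7.6, 10 mM MgCl2, 0.01% Nonidet P-40, 0.01% BSA. Enzyme 15 nM, pre-exposed to compound 15 min; substrates then added and fluorescence change tracked over 30 min.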
Menin MLL FP FL: inhibitors of human menin-MLL interaction, wild-type MLL peptide. Fluorescence polarization, fluorescein-MLL peptide displacement from menin. 290,000 tested, under 10 active. FP activity change, % at 61.4 µM; inconclusive = falling polarisation curve, or a change in total fluorescence; inactive = total fluorescence flat and polarisation flat or rising; no compound was filed as active; the % refers to the polarisation; negative = inhibition;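 further: % of control where 0% means no effect; inhibitors lower the polarisation; unlabelled MLL peptide was the positive control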
D2 ag: activates the human D2 dopamine receptor | DiscoveRx PathHunter D2 beta-arrestin, luminescence, 90 min; 100% = 57 uM dopamine signal | P14416 | activation, % (concentration not given with the values) | hit rate 0.084% among 360,000; in the data active = activation above about 40%; inconclusive = about 15% to 40%; inactive = below about 15%; further: compound concentration not given in the record; the text of the record calls up to 30% inactive
Target sequence (P14416 whole entry, looked up): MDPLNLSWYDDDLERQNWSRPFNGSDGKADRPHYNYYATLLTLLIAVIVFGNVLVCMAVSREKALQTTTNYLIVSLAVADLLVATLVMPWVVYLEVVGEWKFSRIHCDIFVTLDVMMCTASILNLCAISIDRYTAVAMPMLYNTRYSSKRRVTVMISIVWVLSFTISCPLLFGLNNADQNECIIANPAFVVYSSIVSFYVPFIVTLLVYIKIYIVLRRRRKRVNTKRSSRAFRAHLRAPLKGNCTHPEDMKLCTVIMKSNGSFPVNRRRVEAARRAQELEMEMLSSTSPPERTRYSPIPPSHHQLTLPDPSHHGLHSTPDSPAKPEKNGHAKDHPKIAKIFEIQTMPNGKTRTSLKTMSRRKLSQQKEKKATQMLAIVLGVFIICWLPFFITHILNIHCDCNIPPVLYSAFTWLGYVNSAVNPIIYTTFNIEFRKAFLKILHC
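Agonist mode: compounds alone added to overnight-plated D2 PathHunter cells for 90 min at 37 C, with 57 uM final dopamine (EC100) defining full response. Beta-arrestin recruitment detected by chemiluminescent reagent, read after 1 h at ambient temperature.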
PINK1 expr mod: changes PINK1 expression; PINK1 immunofluorescence, high-content cytometry, 24 h; Potency, µM (titrated, usually from 76.6 µM), for inactives: top-dose activation (PINK1 increase), usual class: activators; hit rate 0.2% among 410,000; active = well fitted activation curve with a large enough effect; inconclusive = small, poorly fitted or top-dose-only effect; inactive = flat fitted curve, though single readings scatter; cell line not stated here;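 further: potency means the concentration at half of the fitted maximal effect; % of control where 0% means no effect; nearly all actives have a fitted effect of over 65% in size; a mitochondrial uncoupler was the plate control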
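Fluorescence from anti-PINK1 antibody, together with nuclear and cell stains, was scanned on a laser-scanning cytometer. Before staining, stable-line cells were incubated 24 hours with compounds at 5 concentrations; primary antibody 12 h at 10 degrees C.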
gsp agonist: agonists of gsp mutant (McCune-Albright syndrome) | gsp mutant cells, cAMP HTRF, 30 min; control for the full effect not named in the record | Potency, µM (titrated, usually from 76.9 µM), for the others: at the highest dose activation (cAMP increase), hits mostly activators | hit rate 0.13% among 340,000 | AID 624287; active = well fitted activation curve with a large enough effect; inconclusive = small, poorly fitted or top-dose-only effect, or another doubt; inactive = no such curve, though single readings can be large or run the other way; cell line not stated here;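 further: phosphodiesterase inhibitor Ro 20-1724 added with compounds to block cAMP breakdown; potency means the concentration at half of the fitted maximal effect; nearly all actives have a fitted effect of over 60% in size; about a fifth of the inactives were tested at one dose only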
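Cells stably selected in G418 were plated at 2000/well, grown 16-24 hr, then given compounds in DMSO with the PDE inhibitor […] (300 uM solution added) for 30 min at 37C; cAMP was read by HTRF.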
gsp antag: antagonists of gsp mutant (McCune-Albright syndrome); gsp-mutant cells, cAMP HTRF, 30 min; control for the full effect not named in the record; Potency, µM (titrated, usually from 76.9 µM), without a hit: top-dose activity change, negative = inhibition, usual class: inhibitors; hit rate 0.4% among 340,000; active = falling curve of any shape with a large fitted effect; inconclusive = falling curve, mostly with a smaller effect; inactive = flat or rising curve; cell line not stated here;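 further: intracellular cAMP measured with PDE inhibitor Ro 20-1724 present during compound exposure; potency means the concentration at half of the fitted maximal effect; on the % scale 0 is the no-effect control and ±100 the full control effect; nearly all actives have a fitted effect of over 65% in size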
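Measurement of cellular cAMP by homogeneous time-resolved fluorescence following a 30 min compound exposure at 37C. The PDE inhibitor […] was present throughout; the assay buffer was DPBS with 0.05% BSA and 0.005% Tween 20.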
The depositor's hits bear a star; ? = inconclusive; . = no result given; & = joins results of further samples; [ ] = dose if it differs, or a comment.

SMILES | ClpP mod | Sfp inh | Menin MLL FP FL | D2 ag | PINK1 expr mod | gsp agonist | gsp antag
C=CCNC(=O)C1CC(=O)N(c2ccc(OCC(=O)N3CCCC3)cc2)C1 (centres undefined) | 0.3% | 5% | 2.5 | -5.5 | -0.3% | -15%[15.4 µM] | -10%
Cc1ccccc1NC(=O)Cn1nnc2ccccc21 | . | 18% | 0.0 | 1.2 | 0.6% | -1%[15.4 µM] | 10%
CCC1CCCCN1CCCNC(=O)CNC(=O)c1nn(-c2ccc(OC)c(Cl)c2)c(=O)c2ccccc12 (centres undefined) | . | 17% | -4.3 | -3.6 | -1.4% | ? | 1%
COC(=O)COc1ccc(C2NC(=O)NC(C)=C2C(=O)NCc2ccccc2)cc1OC (centres undefined) | . | 11% | 0.5 | 0.5 | 0.7% | 6%[15.4 µM] | 6%
CN1CCN(C(=O)c2ccc(-n3cccn3)nc2)CC1 | . | -6% | 0.8 | -1.3 | -0.7% | 2%[15.4 µM] | 6%
Cc1nnc(NC(=O)c2ccc(N3CCCC3=O)cc2)s1 | -5.0% | . | . | 0.1 | -0.2% | -3%[15.4 µM] | -9%
C(CCCN1CCCCC1)CCN1CCCCC1 | -1.0% | . | . | 0.5 | -0.8% | 6%[15.4 µM] | 7%
O=C(C1=C(O)C(=O)N(CCN2CCOCC2)C1c1cccc([N+](=O)[O-])c1)c1cccs1 (centres undefined) | . | 9% | -1.1 | -4.4 | 3.0% | 6% | 11%
Cc1cccc(OCC(=O)Nc2cc(S(=O)(=O)N3CCCCC3)ccc2N2CCN(C)CC2)c1 | -1.5% | -15% | 2.3 | -2.7 | 0.4% | -42%[inhibitor] | -2%
COC(=O)c1sc2ccccc2c1-n1cccc1C(=O)C(=O)Nc1ccc(C)cc1 | -0.8% | -2% | 11 | -2.3 | 12% | -31%[inhibitor] | -9%
COc1ccc(N(CC(=O)Nc2ccc3c(c2)OCO3)S(=O)(=O)c2ccccc2)cc1OC | -0.7% | 9% | -0.6 | 0.9 | 1.2% | ? | -14%
COc1cccc(N(CC(=O)NC2CCCCC2)C(=O)CCC(=O)Nc2nccs2)c1 | -0.6% | 9% | 2.7 | -6.1 | 5.7% | -6%[15.4 µM] | 0%
CN(C)CCNC(=O)c1ccc2c(c1)NC(=O)c1ccccc1S2 | -2.2% | 0% | -0.8 | -1.6 | 1.7% | 12% | -1%
O=S(=O)(Nc1ccc(N=Nc2ccccc2)cc1)c1ccccc1 | -0.4% | 21% | 0.3 | -9.2 | 7.4% | -49%[inhibitor] | -30%
CC1(C)Cc2c(c(N3CCOCC3)nc3sc(C(=O)Nc4ccccc4)c(N)c23)CO1 | -22% | -20% | . | 2.7 | 4.6% | ? | -6%
O=C1CC(C(=O)Nc2ccc(Cl)cc2)n2ncnc2N1 (centres undefined) | . | 10% | 1.2 | -1.6 | -0.7% | 9%[15.4 µM] | 18%
O=C(c1ccc(OC2CCN(Cc3ccccn3)CC2)cc1)N1CCCCCC1 | . | 4% | -1.2 | -5.1 | -0.6% | -1%[15.4 µM] | 10%
Cc1ccc(/C=C/C(=O)Nc2sc(C)c(C)c2C(=O)OC(C)C)o1 | -1.9% | ? | ? | -0.2 | ? | -10%[15.4 µM] | -4%
COc1ccc(NS(=O)(=O)c2cccc(C(=O)NCC(c3ccco3)N3CCCCC3)c2)cc1 (centres undefined) | . | . | . | -3.5 | -0.4% | -14%[15.4 µM] | -5%
COc1ccc(C(=O)N(Cc2nc(-c3ccc(C)cc3)no2)C(C)C)cc1OC | -6.1% | 21% | -1.7 | -31 | 0.9% | ? | -7%

An excerpt from above, showing only PINK1 expr mod, gsp agonist and ClpP mod.
SMILES | PINK1 expr mod | gsp agonist | ClpP mod
Cc1nnc(NC(=O)c2ccc(N3CCCC3=O)cc2)s1 | -0.2% | -3%[15.4 µM] | -5.0%
COC(=O)COc1ccc(C2NC(=O)NC(C)=C2C(=O)NCc2ccccc2)cc1OC (centres undefined) | 0.7% | 6%[15.4 µM] | .

Continued.
SMILES | ClpP mod | Sfp inh | Menin MLL FP FL | D2 ag | PINK1 expr mod | gsp agonist | gsp antag
O=C(Nc1ccc(N2CCOCC2)cc1)c1cccc(S(=O)(=O)N2CCCCCC2)c1 | -0.7% | 19% | -1.0 | 1.8 | 5.8% | -6% | 14%
O=C(CNC(=O)c1cccc(Cl)c1)NCC(c1cccs1)N1CCOCC1 (centres undefined) | -2.1% | . | . | -2.2 | -1.1% | -23% | 8%
COC(=O)c1ccc(CSc2ccc3nnc(-c4ccccc4)n3n2)o1 | -23% | 71µM* | -0.1 | -0.1 | 2.0% | ? | 2%
CCc1nn2c(=O)cc(COC(=O)c3ccc(SC)cc3OC)nc2s1 | 1.8% | . | . | 1.8 | -1.2% | 9% | 10%
C#CCOCCOCCOCCNc1nc(N2CCN(C(=O)C([C@@H](C)O)n3cc([C@@H](N)CCCCN)nn3)CC2)nc(N2CCN(C(=O)[C@H](CO)n3cc([C@@H](N)C(C)C)nn3)CC2)n1 (some centres undefined) | -1.0% | . | . | -0.1 | 1.5% | . | 9%
COc1ccc(S(=O)(=O)n2nc(-n3c(C)ccc3C)c3c(F)cccc32)cc1OC | 0.3% | ? | 14 | -2.0 | 2.0% | -2%[15.4 µM] | -39%
Cc1ccc2c(C(=O)N3CCN(c4ccccc4)CC3)cc(-c3cccnc3)nc2c1C | . | 10% | -2.5 | 2.0 | -1.2% | 25%[15.4 µM] | -13%
COc1ccc(/C=C/c2c(-c3ccc(OC)cc3)sc3ccc(N4CCOCC4)cc23)cc1 | ? | 6% | -1.0 | -1.7 | -0.2% | ? | 9%
Cc1cc(C)n2cc(CSc3ncn[nH]3)nc2n1 | 4.2% | -3% | -1.9 | -0.1 | -1.0% | 26% | 6%
COC(=O)/C(=N/Nc1ccccc1OC)N1CCCc2ccccc21 | -2.2% | 1% | 0.0 | -3.6 | -1.0% | -8% | -2%
NC(=O)COc1ccc2oc(-c3ccccc3)cc(=O)c2c1 | . | 19% | -1.8 | -1.1 | -0.7% | 1%[15.4 µM] | -11%
Oc1ccccc1-c1nc(NCCN2CCOCC2)c2ccccc2n1 | -5.0% | -9% | 3.3 | -0.1 | 0.2% | 6% | -2%
CC(C)(C)NC(=O)c1cccc(NC(=O)CSc2ccc(Cl)cc2)c1 | -2.3% | 0% | 4.2 | -4.2 | -0.7% | 26% | -13%
Cn1c(SCCS(=O)(=O)c2ccc(Cl)cc2)nnc1-c1ccccc1 | -1.3% | 3% | 1.5 | -0.6 | -2.8% | -19% | 7%
CC1(C(=O)NS(=O)(=O)c2ccccc2C(F)(F)F)CCN1C(=O)CCC1CCCC1 (centres undefined) | 2.8% | . | . | 8.9 | 1.4% | . | .
CC(CCc1ccc(O)cc1)NCCC(c1ccccc1)c1ccccc1 (centres undefined) | . | -13% | -0.5 | 1.2 | -1.5% | -33% | -2%
CCOC(=O)c1ccc(NC(=O)CC2S/C(=N/N=C/c3c[nH]c4ccccc34)NC2=O)cc1 (centres undefined) | -3.1% | 0% | 0.7 | 0.7 | 7.1% | 5% | -7%
COc1ccc(Oc2nccc(OC)c2C#N)cc1 | -0.7% | 27% | -0.7 | -1.0 | . | -79%[inhibitor] | 2%
CCOc1cc(/C=C2\SC(=Nc3ccccc3)N(c3ccccc3)C2=O)ccc1OCC(=O)O | -0.7% | -17% | 4.8 | -0.4 | -2.6% | 7% | -4%
CC1=C(C(=O)Nc2ccccc2)C(c2ccncc2)n2nnnc2N1 (centres undefined) | 0.2% | 13% | 1.1 | -2.6 | 4.7% | 3% | 16%
CC1(c2ccc3c(c2)OCCO3)NC(=O)N(CC(=O)Nc2ccccc2SCC#N)C1=O (centres undefined) | -0.1% | . | . | 0.5 | -0.8% | -143%[inhibitor] | -14%
Cc1ccc(S(=O)(=O)c2c(N)n(NC(=O)c3ccccc3C)c3nc4ccccc4nc23)cc1 | 32µM* | -1% | -0.5 | -4.3 | 3.6%[38.3 µM] | -48%[inhibitor] | -6%
COc1ccc(NC(=O)CS(=O)c2ccc(Br)cc2)cc1 (centres undefined) | 1.2% | 9% | . | -2.8 | 3.1% | ? | -1%
CCCCOc1ccc(-c2nnn(CC(=O)Nc3ncc(CC(=O)OCC)s3)n2)cc1 | -3.3% | 11% | 7.1 | 2.4 | 5.9% | -45%[inhibitor] | -6%
O=CNCCc1nc2ccccc2n1CCc1ccccc1 | 0.5% | 31%[activator] | 0.7 | 1.6 | 2.2% | -5% | -7%
CC[C@]12c3[nH]c4ccccc4c3CCN1C(=O)C(CC(=O)NCc1cccc(C(F)(F)F)c1)C[C@@H]2C(=O)N1CCN(C(=O)c2ccco2)CC1 (some centres undefined) | -4.2% | . | . | -2.5 | -0.6% | . | -23%
Cc1ccc(CN2C(=O)C(CC(C)C)Nc3ncnc(N4CCN(c5ccccc5)CC4)c32)cc1 (centres undefined) | -0.6%&-1.8% | . | . | -2.6&-8.3 | 5.3%&5.1% | . | 6%
CCCCNC(=O)COC(=O)c1cc(S(=O)(=O)N2CCCCCC2)ccc1OC | 0.5% | 18% | 2.6 | -4.9 | -2.6% | 3% | -13%
Cc1cc(C(=O)NNC(=O)c2cccc(Cl)c2)no1 | -0.1% | 13% | -0.8 | -2.6 | -0.1% | -15% | 5%
Cc1nc(N)[nH]c(=O)c1CCCNc1ccc(CCC2(CCl)OCCO2)cc1 | 0.9% | . | . | -2.0 | 1.2% | -5%[15.4 µM] | -2%
FC(F)(F)c1nnc2c(Sc3ccccn3)nc3ccccc3n12 | -2.1% | -5% | 7.8 | 4.5 | -2.2% | 6% | 3%
CCN(CCNC(=O)C1CCCN(S(=O)(=O)c2cnc[nH]2)C1)c1ccccc1 (centres undefined) | 1.2% | -8% | 2.8 | -0.7 | -1.0% | 17% | -1%
CCc1ccccc1Nc1nc2ccccc2[nH]1 | -0.8% | . | . | -3.2 | 3.5% | 21% | -11%
Oc1ccccc1/C=N/Nc1ccnc(SCc2ccccc2)n1 | -0.3% | -6% | 2.6 | -7.3 | 11% | -21% | -3%
